Screens (PubChem BioAssay)
A488 fluor: qHTS Assay for Spectroscopic Profiling in A488 Spectral Region; compound autofluorescence, A488 spectral region, dye equivalency; stronger effect = higher value; max dye equivalency, M; 59,000 compounds, 0.1% hits; active = above 10 nM dye equivalent; inconclusive = 1 to 10 nM; inactive = 1 nM or less; about half of its hits are not listed in these tables;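 further: highest value over a series up to 38 µM; compound alone in buffer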
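Spectroscopic profiling in the A488 region: compounds in pH 8.0 Tris (100 mM), 15 min RT, CCD imaging with 480 nm excitation and 540 nm emission; responses normalized against A488 dye standards.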
AID923: qHTS Assay for Allosteric/Competitive Inhibitors of Caspase-1: Spectroscopic Profiling in AFC Spectral Region; compound fluorescence, AFC spectral region (405/520 nm); almost no hit is shown here; 75,000 compounds, 1.1% hits; Potency, µM (highest dose often 57.5 µM), without a hit: at the highest dose fluorescence increase, hits mostly activators; active means well fitted activation curve with a large enough effect; inconclusive means small, poorly fitted or top-dose-only effect;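 further: potency means the concentration at half of the fitted maximal effect; 0% is about no effect; scaled to a free AFC standard on each plate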
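Titrations up to 57 uM read every 20 sec for 3 min (405/520 nm) with 50 nM caspase 1 and 5 uM Ac-WEHD-AFC, pH 7.5 HEPES buffer. Fluorescence-vs-time intercept gave baseline, scaled against on-plate AFC standard.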
TSHR ag: qHTS Assay for Agonists of the Thyroid Stimulating Hormone Receptor | Thyrotropin receptor (Homo sapiens), P16473 | HEK293-CNG-TSHR cells (CNG channel as cAMP sensor), membrane potential dye, cAMP | Potency, µM (top dose mostly 57.1 µM), inactives show top-dose activation, usual class: activators | 73,000 compounds, 0.48% hits | AID 926, 2007; active = well fitted activation curve of enough size with the parental cells flat; inconclusive = any curve in the parental cells; inactive = parental cells flat and receptor cells flat or falling; further: potency means the concentration at half of the fitted maximal effect; % of control where 0% means no effect; weak receptor curves with flat parental cells got no call and are not listed
Target sequence (P16473 whole entry, looked up): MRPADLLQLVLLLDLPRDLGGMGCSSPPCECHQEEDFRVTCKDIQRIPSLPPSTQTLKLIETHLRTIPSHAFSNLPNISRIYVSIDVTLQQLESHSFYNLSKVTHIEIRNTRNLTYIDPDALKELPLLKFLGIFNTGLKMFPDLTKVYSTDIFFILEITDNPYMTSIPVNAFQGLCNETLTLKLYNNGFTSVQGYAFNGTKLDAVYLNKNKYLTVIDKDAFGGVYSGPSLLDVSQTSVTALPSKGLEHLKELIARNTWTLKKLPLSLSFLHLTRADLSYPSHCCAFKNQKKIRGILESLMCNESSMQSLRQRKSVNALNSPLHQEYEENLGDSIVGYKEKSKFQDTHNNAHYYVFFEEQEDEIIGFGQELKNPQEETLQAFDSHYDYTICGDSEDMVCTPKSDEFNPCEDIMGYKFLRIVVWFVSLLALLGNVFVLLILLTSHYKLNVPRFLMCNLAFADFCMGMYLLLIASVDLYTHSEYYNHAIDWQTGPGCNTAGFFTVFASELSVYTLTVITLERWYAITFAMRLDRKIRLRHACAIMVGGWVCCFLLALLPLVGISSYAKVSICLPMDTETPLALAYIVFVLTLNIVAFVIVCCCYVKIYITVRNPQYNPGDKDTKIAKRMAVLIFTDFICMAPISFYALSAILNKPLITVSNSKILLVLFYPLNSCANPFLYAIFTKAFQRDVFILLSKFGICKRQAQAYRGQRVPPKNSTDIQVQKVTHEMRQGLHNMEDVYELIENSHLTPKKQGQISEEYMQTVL
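HEK 293 cells stably expressing TSHR and a modified CNG channel, with CNG-only parental cells as counterscreen, were preloaded 60 min at room temperature with membrane potential dye containing 100 uM RO 20-1724. Compound exposure was 30 min, and depolarization was read as fluorescence at 590 nm.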
A647 autofl: qHTS Assay for Spectroscopic Profiling in A647 Spectral Region; Compound fluorescence, A647 channel (570/671 nm), Tris buffer; max dye-equivalent concentration, M; 59,000 tested, under 10 active; active means above 1 µM dye equivalent; inconclusive means 0.1 to 1 µM; inactive means 0.1 µM or less;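 further: values scaled relative to a standard on each plate; highest value over a series up to 38 µM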
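Buffer was dispensed, compounds and Alexa 647 standards were pin-transferred, and plates sat 15 min at room temperature. Intensity at 570/671 nm was then converted to dye-equivalent concentration using the plate's A647 standard curve.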
Resorufin autofl: qHTS Assay for Spectroscopic Profiling in Resorufin Spectral Region; Compound fluorescence, resorufin region 547/598 nm, buffer; stronger effect = higher value; max dye-equivalent concentration, M; 59,000 compounds, 0.04% hits; AID 588, 2007; active = above 10 nM dye equivalent; inconclusive = 1 to 10 nM; inactive = 1 nM or less; a few of its hits are not listed in these tables; further: highest value over a series up to 38 µM
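Dye-equivalent concentration values derive from comparing each well's 547/598 nm fluorescence against resorufin standards included on every plate. Incubation was 15 min at room temperature in 100 mM Tris, pH 8.0.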
* = called active by the depositor; i = inactive; ? = inconclusive; · = no result given; & = joins results of further samples; [ ] = another dose, or the depositor's remark. Not all compounds are listed; count on the stated rates, not on these rows.

| canonical_smiles | A488 fluor | A647 autofl | TSHR ag | Resorufin autofl | AID923 |
| --- | --- | --- | --- | --- | --- |
| CCn1c(SCC(=O)O)nc2sc3c(c2c1=O)CCC3 | i | 1.5e-09 | · | i | · |
| O=C(NC(c1ccccc1)c1ccccc1)N1CCN(CCO)CC1 | i | 1.8e-09 | 4.5% | i | -0.5% |
| COC(=O)C1=C(C)Nc2ncnn2C1c1ccc(OCc2ccccc2)cc1 (stereo not drawn) | i | 1.39e-08 | 3.0% | i | 0.6% |
| COC(=O)C1=C(C)OC(N)=C(C#N)C1c1cc(OC)ccc1OC (stereo not drawn) | i | 1.95e-08 | 5.6% | i | -0.8% |
| COCCn1c(C)c(C(=O)O)sc1=S | i | 2.68e-08 | -0.3% | i | 0.1% |
| COc1ccc(-c2ccc(N)[n+](CCCC(=O)O)n2)cc1 | i | 2.3e-09&2.9e-09 | -15.4%[25.6 µM] | i | -1.3%[25.7 µM] |
| CCc1cc(=O)oc2cc(OCc3nn[nH]n3)ccc12 | i | 4.2e-08 | -9.4% | i | -1.4% |
| O=C(NCCCN1CCCCC1)c1ccc2c(=O)n(CCc3ccccc3)c(=O)[nH]c2c1 | i | 2.8e-09 | -3.0% | i | 2.1% |
| COc1cc(COCC(O)CN2CCOCC2)cc(OC)c1OC (stereo not drawn) | i | 2.99e-08 | -1.1% | i | 0.9% |
| O=C(CC(NS(=O)(=O)c1ccc(Cl)cc1)c1ccco1)NCc1ccco1 (stereo not drawn) | i | 3.1e-08 | · | i | -1.0% |
| Cc1onc(-c2ccccc2Cl)c1C(=O)N1CCN(c2ccccc2)CC1 | i | 1.8e-09 | 17.7% | i | -2.0% |
| O=C(Nc1ccccc1)N1CC=C(c2ccc(F)cc2)CC1 | i | 1.3e-09 | 11.1% | i | 1.3% |
| Cc1ccc(-c2nc3cc(N)ccc3o2)cc1 | · | · | -5.2% | · | 6.0% |
| CCCCOc1ccc(-c2nnn(C(C)C(=O)OCC)n2)cc1 (stereo not drawn) | i | 1e-09 | 0.7% | i | 0.2% |
| O=C(O)C1CCCN1C(=O)OCc1ccccc1 (stereo not drawn) | i | 1.7e-09 | 4.2% | i | 0.1% |
| COc1ccc(N2CCN(C(=O)c3cc4c(-c5ccc(Cl)cc5)nn(C)c4s3)CC2)cc1 | · | · | 0.3% | · | 2.2% |
| CSc1cccc(NC(=O)CSc2ccccc2)c1 | i | 1e-09 | 12.5% | i | 1.4% |
| Cc1noc(C)c1C(=O)NC(C)c1ccc2c(c1)OCO2 (stereo not drawn) | i | 2.45e-08 | -11.9% | i | -1.0% |
| Cc1cc(C)cc(NC(=O)CSc2nnc(-c3ccccc3Br)o2)c1 | i | 5.83e-08 | ? | i | -1.4% |
| COc1cccc(C(=O)NC2CCN(CC(=O)NCc3ccccc3OC)CC2)c1 | i | 8e-09 | 3.4% | i | -0.1% |
| CCOC(=O)c1cnc2ccc(C(=O)OC)cc2c1NCc1ccco1 | i | 1.9e-09 | ? | i | 0.3% |
| ClC(Cl)Cl | · | · | -0.5% | · | 0.9% |
| CCOC(=O)c1cnc(SCC(=O)Nc2nnc(CC)s2)nc1N | i | 1e-09 | -1.5% | i | 0.1% |
| C=C(C)COc1ccc(-c2n[nH]c(C)c2-c2ccccc2)c(O)c1 | i | 3.13e-08 | 20.6% | i | 0.2% |
| CCC(C)[C@H](NC(=O)NCc1cccc(OC)c1)C(=O)O (stereo partly drawn) | i | 2.99e-08 | 8.7% | i | 0.2% |
| Cc1ccccc1CSc1nnc(-c2ccccn2)n1N | i | 3.22e-08 | 9.8% | i | 0.2% |
| Cc1nc(SCC(C)C)[nH]c(=O)c1Cc1ccccc1 | i | 1e-09 | 5.7% | i | -0.8% |
| C=C[C@@]1(C)CC(=O)[C@@]2(O)[C@@]3(C)[C@@H](O)CCC(C)(C)[C@@H]3[C@H](O)[C@H](OC(C)=O)[C@@]2(C)O1 | · | · | ? | · | -2.4% |
| CC(C)c1nc(SCc2ccccn2)c2c(=O)n(C)c(=O)n(C)c2n1 | · | · | 10.8% | · | 0.6% |
| O=C(Cc1cn2ccsc2n1)OCc1ccccc1 | i | 1e-09 | 3.6% | i | -0.7% |
| COC(=O)COc1ccc(S(=O)(=O)N2CCOCC2)cc1 | i | 3.14e-08 | 5.6% | i | -0.3% |
| O=C(N/N=C1/C[C@@H](O)[C@@H](O)[C@@H]2[C@H]3C(=O)N(c4ccc(F)cc4F)C(=O)[C@@H]3CC[C@@H]12)OCc1ccccc1 | · | · | 0.2%[11.4 µM] | · | 9.0%[11.5 µM] |
| COc1cccc2c(C)c(C(=O)O)[nH]c12 | i | 4.57e-08 | ? | i | -2.0% |
| Nc1cccc(C(=O)Nc2ccco2)c1 | i | 7.1e-08 | 0.4% | i | 1.1% |
| COc1ccc(NS(=O)(=O)c2ccc(O)c(C(=O)OCC(=O)N3CC(C)OC(C)C3)c2)cc1 (stereo not drawn) | i | 2.39e-08 | 0.7% | i | 0.0% |
| N#Cc1nc(-c2ccccc2)oc1NCCN1CCCCC1 | i | 5.02e-08 | 1.3% | i | -0.7% |
| O=C(N1CCOCC1)N(Cc1ccccc1)c1ccccn1 | i | 2.53e-08 | 13.1% | i | 2.1% |
| Cn1cnc2c(NCc3ccccc3)nc(NCCO)nc21 | i | 1.46e-08 | 2.1%&3.7% | i | -1.6% |
| COc1ccc(C2C(C#N)=C(N)OC3=C2C(=O)CC(C)C3)c(OC)c1OC (stereo not drawn) | · | · | 7.9% | · | 3.4% |
| COc1ccc(Cl)cc1C(=O)Nc1ccc2c(c1)OCO2 | i | 1e-09 | ? | i | 0.5% |
| c1coc(CSCc2cn3cccnc3n2)c1 | i | 8.1e-09 | 1.4% | i | 0.5% |
| COc1ccc(C2C(C(=O)NCc3ccccn3)c3ccccc3C(=O)N2C)cc1OC (stereo not drawn) | i | 1e-09 | 0.8% | i | 1.0% |
| CCC1CCCCN1S(=O)(=O)c1ccc(C(=O)Nc2nnc(-c3ccccc3Cl)o2)cc1 (stereo not drawn) | i | 1e-09 | 6.3% | i | -0.5% |
| CC(=O)OCC(=O)[C@@]1(O)CC[C@H]2[C@@H]3CCC4=CC(=O)CC[C@]4(C)[C@H]3[C@@H](O)C[C@@]21C | i | 1e-09 | · | i | · |
| O=C1OCCC1Sc1ncnc2sc3c(c12)CCC3 (stereo not drawn) | i | 1.45e-08 | 20.9% | i | 3.7% |
| CSC1=NC2(CCCCC2)C2=C(CCCC2)N1 | i | 7.7e-09 | 1.2%[11.4 µM] | i | -0.7% |
| Oc1ccc(N2CCN(c3ncnc4sc5c(c34)CCC5)CC2)cc1 | i | 7.8e-09 | · | i | 1.0% |
| CCc1nc2ccccc2n1CC(=O)N1CCN(S(=O)(=O)c2cccc(C(F)(F)F)c2)CC1 | i | 1e-09 | 5.5% | i | 3.1% |
| CC(=O)Nc1ccc(SCC(=O)N(CCC#N)c2ccc(C)cc2)cc1 | i | 2.75e-08 | 8.8% | i | -0.6% |
| Cc1ccc(C)c(-n2c(SCC(=O)Nc3nnc(C)s3)nnc2-c2ccoc2C)c1 | i | 1e-09 | ? | i | -0.7% |
| O=C1N=C(N2CCOCC2)S/C1=C1\C(=O)N(Cc2ccccc2)c2ccc(Br)cc21 | i | 3.07e-08 | -42.1%[inhibitor] | i | 1.0% |
| O=C(CCNS(=O)(=O)c1ccc(Br)cc1)NCc1ccc2c(c1)OCO2 | i | 4.5e-09 | 7.7% | i | 3.3% |
| O=C(CSc1ccccc1C(=O)NCCCN1CCCC1=O)NCc1ccco1 | i | 1.4e-09 | 6.8% | i | 0.2% |
| Cc1ccc(C(=O)CSc2nnc(-c3ccco3)o2)o1 | i | 2.94e-08 | 3.6% | i | -0.5% |
| O=C(CCNC(=O)Cn1cnc2ccccc2c1=O)NCC1COc2ccccc2O1 (stereo not drawn) | i | 1.54e-08 | -0.9% | i | 0.5% |
| COc1ccc(C(=O)O)cc1S(=O)(=O)Nc1cccc(C)c1 | i | 2.4e-08 | 4.3% | i | -2.7% |
| Cc1cc(O)c(-c2cc(C(=O)NCc3ccc4c(c3)OCO4)[nH]n2)cc1C | i | 2.38e-08 | 13.2% | i | -1.5% |
| CC1Cn2c(nnc2-c2cc3ccccc3cc2O)S1 (stereo not drawn) | i | 1e-09 | 4.9% | i | 2.6% |
| CCc1ccccc1S(=O)(=O)Cc1ccc(C(=O)NC(C)C)o1 | · | · | 4.6% | · | 2.5% |
| Cc1ccc(N2CCN(c3ccc(C)cc3)C2c2ccncc2)cc1 | i | 1.7e-08 | 7.6% | i | -1.0% |

New compounds follow.
| canonical_smiles | A488 fluor | A647 autofl | TSHR ag | Resorufin autofl | AID923 |
| --- | --- | --- | --- | --- | --- |
| CCOC(=O)c1c(NC(=O)CSc2n[nH]c(-c3ccco3)n2)sc(C)c1C | i | 2.5e-09 | 29.6% | i | -0.6% |
| C[C@@H]1C[C@@]2(C)Oc3ccccc3[C@H]3OC[C@]1(COC(=O)Nc1ccccc1)[C@@H](C)[C@@H]32 | i | 5.4e-09 | 10.8% | i | · |
| NC(=O)c1ccc[n+]([C@@H]2O[C@H](COP(=O)([O-])OP(=O)(O)OC[C@H]3O[C@@H](n4cnc5c(N)ncnc54)[C@@H](O)[C@@H]3O)[C@@H](O)[C@@H]2O)c1 | i | 4.7e-09 | 12.1%[25.6 µM] | i | 2.0%[25.7 µM] |
| COc1cc(OC)nc(NC(=O)CN2CCN(c3ccc(F)cc3)CC2)n1 | i | 3.2e-09 | 10.7% | i | 1.2% |
| Cc1ccc(NC(=O)NCCCN2CCOCC2)cc1 | i | 8.5e-09 | 2.3% | i | -0.9% |
| CC(C)Sc1nnc([C@H](C)NC(=O)OC(C)(C)C)o1 | i | 1e-09 | ? | i | 0.4% |
| Fc1ccc2[nH]c3c(N4CCN(Cc5ccc6c(c5)OCO6)CC4)ncnc3c2c1 | i | 5.18e-08 | · | i | · |
| c1ccc(-c2ccc(N3CCCC4(CCNCC4)C3)cc2)cc1 | i | 2.02e-08 | ? | i | -0.7% |
| CCOCCCNC(=O)C1CCN(S(=O)(=O)N2CCCCC2)CC1 | i | 7.9e-09 | 3.9% | i | -2.1% |
| Cc1ccc(S(=O)(=O)N2CCN(C(=O)c3ccccc3)C2C(C)C)cc1 (stereo not drawn) | i | 1e-09 | ? | i | -0.6% |
| O=C(c1cnccn1)N1CCC2(CC1)CN(C(c1ccccc1)c1ccccc1)C2 | i | 1.1e-08 | 1.0% | i | 3.2% |
| O=C1CSC(c2cn(-c3ccccc3)nc2-c2ccccc2)N1Cc1ccco1 (stereo not drawn) | i | 1e-09 | · | i | -1.5% |
| COc1ccc(OC)c(-c2nnc(SCC(=O)N3CCCc4ccccc43)o2)c1 | i | 3.09e-08 | · | i | -0.2% |

Not a retest: an excerpt of the list.
| canonical_smiles | A488 fluor | A647 autofl | TSHR ag | Resorufin autofl | AID923 |
| --- | --- | --- | --- | --- | --- |
| CCOCCCNC(=O)C1CCN(S(=O)(=O)N2CCCCC2)CC1 | i | 7.9e-09 | 3.9% | i | -2.1% |
| Cc1ccc(S(=O)(=O)N2CCN(C(=O)c3ccccc3)C2C(C)C)cc1 (stereo not drawn) | i | 1e-09 | ? | i | -0.6% |
| O=C(c1cnccn1)N1CCC2(CC1)CN(C(c1ccccc1)c1ccccc1)C2 | i | 1.1e-08 | 1.0% | i | 3.2% |
| O=C1CSC(c2cn(-c3ccccc3)nc2-c2ccccc2)N1Cc1ccco1 (stereo not drawn) | i | 1e-09 | · | i | -1.5% |
| COc1ccc(OC)c(-c2nnc(SCC(=O)N3CCCc4ccccc43)o2)c1 | i | 3.09e-08 | · | i | -0.2% |
